CBX7 AlphaScr: CBX7 chromodomain binding inhibitors, primary screen, biochemical, AlphaScreen. AID 1224903, 2016. hit rate 1.1% among 66,000. normalised signal (fraction of DMSO) (no concentration beside the values). Chromobox protein homolog 7 (Homo sapiens), O95931. AlphaScreen His6-CBX7 / biotin-H3K27me3 peptide binding; active compounds read low; in the data active means normalised signal below about 0.5;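 further: 100 nL library stock added to about 20 µL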
Target sequence (O95931 whole entry, looked up): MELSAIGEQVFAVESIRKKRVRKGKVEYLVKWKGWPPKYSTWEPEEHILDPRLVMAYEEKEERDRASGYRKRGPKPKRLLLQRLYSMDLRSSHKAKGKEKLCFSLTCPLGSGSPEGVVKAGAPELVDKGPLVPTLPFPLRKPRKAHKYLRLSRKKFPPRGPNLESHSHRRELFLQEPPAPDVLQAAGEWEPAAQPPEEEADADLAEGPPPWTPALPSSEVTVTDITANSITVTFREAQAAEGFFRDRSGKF
CBX7 AlphaScr z-score: further read-out of CBX7 AlphaScr, marked with its call; z-score; measured here: z-score of CBX7 signal; some inactives read as strong as hits; reference of the scale not given here;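 same signal on another scale; lower means less binding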
An asterisk follows results filed as active; & = joins results of further samples. Only part of the results is shown; the hit share may differ from the screen's.

No.	compound	CBX7 AlphaScr	CBX7 AlphaScr z-score
1	COc1ccc(-c2csc(NC(=O)c3cc(Cl)cc(Cl)c3)n2)cc1	1.09	3.46
2	Cc1cc(N2CCN(c3ncccn3)CC2)nc2ccc(NC(=O)CC3CCCCC3)cc12	1.14	1.29
3	COc1ccc(CNCCC(c2ccccc2)c2ccc3c(c2)OCO3)cc1 (centres undefined)	0.896	-0.675
4	CCN1CCN(c2cc(C)c3cc(NC(=O)CCC(=O)N4CCC(C)CC4)ccc3n2)CC1	1.15	2.52
5	CC1CC(C)CN(S(=O)(=O)c2ccc3c(c2)N(CC(=O)NCCc2ccccc2)C(=O)CO3)C1 (centres undefined)	1.03	0.819
6	CCCCCNC(=O)c1c[nH]c2ccc(S(=O)(=O)N(C)c3ccc(CC)cc3)cc2c1=O	1.12	1.11
7	CCn1c(=O)cc(OCC(=O)N(C)c2ccc(Cl)cc2)c2ccccc21	0.886	-1.86
8	COc1ccc(CNc2ncc3c(n2)CC(c2ccccc2)CC3=O)cc1 (centres undefined)	0.992	-0.282
9	Cc1cc(NCCNCc2ccccc2)n2nc(C)c(-c3ccc(Cl)cc3)c2n1	1.17	4.56
10	CCCCN(Cc1ccccc1)S(=O)(=O)c1ccc2c(c1)CCC(=O)N2	1.01	0.242

Given as labelled records: 4 of the compounds above
[1] COc1ccc(-c2csc(NC(=O)c3cc(Cl)cc(Cl)c3)n2)cc1
  CBX7 AlphaScr = 1.09	CBX7 AlphaScr z-score = 3.46
[3] COc1ccc(CNCCC(c2ccccc2)c2ccc3c(c2)OCO3)cc1 (centres undefined)
  CBX7 AlphaScr = 0.896	CBX7 AlphaScr z-score = -0.675
[8] COc1ccc(CNc2ncc3c(n2)CC(c2ccccc2)CC3=O)cc1 (centres undefined)
  CBX7 AlphaScr = 0.992	CBX7 AlphaScr z-score = -0.282
[9] Cc1cc(NCCNCc2ccccc2)n2nc(C)c(-c3ccc(Cl)cc3)c2n1
  CBX7 AlphaScr = 1.17	CBX7 AlphaScr z-score = 4.56

The list goes on.
No.	compound	CBX7 AlphaScr	CBX7 AlphaScr z-score
11	O=C1NC(c2cccc(F)c2)c2c(-c3ccccc3)n[nH]c21 (centres undefined)	1.04	1.17
12	c1ccc(CC2CCN(c3nc4ccccc4n4cnnc34)CC2)cc1	0.842	-1.62
13	Cc1ccc(-c2noc(CN3CCN(c4cccc(Cl)c4)CC3)n2)cc1	1.1	2.93
14	CCc1cccc(C)c1Nc1c(-c2ccc(OC)cc2)nc2sccn12	0.757	-4.84
15	O=C(CN1C(=O)COc2ccc(S(=O)(=O)N3CCCCCC3)cc21)NC1CCCCCC1	1.1	1.23
16	O=C1CC(c2ccccc2)Cc2nc(-c3ccc(C(F)(F)F)cn3)ncc21 (centres undefined)	1.02	0.193
17	Cc1cc(C)nc(Sc2nnc(-c3ccccc3)c3ccccc23)n1	0.908	-0.364
18	CC(=O)NCC(=O)NC(C(=O)Nc1ccc2c(c1)OCO2)c1ccc(C)cc1 (centres undefined)	1.06	0.636
19	CC(=O)Nc1ccc2nc(NS(=O)(=O)c3ccc(C)cc3)sc2c1	0.951	-1.21
20	CC(C)c1ccc(OCC(=O)N(Cc2cccc(Cl)c2)C2CCS(=O)(=O)C2)cc1 (centres undefined)	1.07	0.0703
21	COc1ccc(S(=O)(=O)N2CCC(C(=O)NCCc3ccc(OC)c(OC)c3)CC2)cc1	1.03	1.36
22	CC1(C(=O)NCc2cccnc2)CCC(=O)N1Cc1ccccc1Cl (centres undefined)	1.01	0.456
23	CCCCN1CCCCC1C(=O)Nc1c(C)cc(C)cc1C (centres undefined)	1.15	2.03
24	Cc1ccc(-c2nn(CC(=O)N(C)C)c(=O)c3ccccc23)cc1	1.07	1.51
25	c1ccc2c(c1)nc(N1CCCCC1)c1nncn12	1.01	0.0876
26	O=C(Nc1cccc(O)c1)C1CC(=O)N(c2ccccc2)C1 (centres undefined)	1.03	0.545
27	Cc1ccc2c(c1)-c1c(cnn1CC(=O)N(C(C)C)C1CCCCC1)CO2	0.97	-0.554
28	CCCOc1ccc(N2C(=O)CC(N3CCSCC3)C2=O)cc1 (centres undefined)	0.998	-0.076
29	C=CCNC(=O)C1CC(c2cc(OC)ccc2OC)=NO1 (centres undefined)	1.05	1.92
30	CCn1c(=O)c(C(=O)Nc2cc(Cl)ccc2OC)c(O)c2ccccc21	0.98	-0.355
31	CCOC(=O)C1CCCN(c2c(NCCN(C)Cc3ccccc3)c(=O)c2=O)C1 (centres undefined)	0.991	-0.192
32	CCOC(=O)c1cc(-c2nnc(-c3ccccc3)o2)c(C)nc1C	0.914	-1.02
33	O=C(Nc1cccc(Cl)c1)c1ccc(Nc2nc(-c3ccccc3)c3ccccc3n2)cc1	1.18	3.01
34	Cc1ccc(-c2cc(C(F)(F)F)n3nc(C(=O)NC4CCCCC4)cc3n2)cc1	1.06	0.777
35	CN(Cc1ccccc1)C(=O)c1cn(-c2ccc(F)cc2F)c(=O)c2ccccc12	1.01	0.434
36	COc1ccc(-n2nc(C(=O)NCC(=O)Nc3cccc(OC)c3)c3ccccc3c2=O)cc1	1.15	2.39
37	Cc1[nH]c2c(Cl)cccc2c(=O)c1CN1CCCCCC1	1.03	0.574
38	CCC(C)NC(=O)C1c2ccccc2C(=O)N1Cc1ccc(OC)cc1OC (centres undefined)	1.06	0.217
39	Clc1ccc(C2CC(c3cccs3)Nc3ncnn32)cc1 (centres undefined)	1.03	0.962
40	Cc1ccccc1Cn1nc(C)c(NC(=O)c2cc(-c3ccc(Br)cc3)on2)c1C	1.23	1.32
41	COc1cccc(-n2ccnc2SCC(=O)Nc2ccc(C)cc2C)c1	0.917	-1.48
42	CCOc1ccc(CCNC(=O)Cn2cc3c(n2)CCCC3)cc1	1.07	2.23
43	Cc1cccc2nc(-c3cccs3)c(Nc3ccc4c(c3)OCO4)n12	0.854	-3.9
44	O=S(=O)(Nc1cccc(C(F)(F)F)c1)c1cccc2cccnc12	1.01	0.312
45	COc1cccc(NC(=O)c2sc3nc(-c4ccccc4)cn3c2C)c1	1.02	0.405
46	Cc1nccc2[nH]c(=O)c(C(=O)NC3CCN(Cc4ccccc4)CC3)cc12	0.939	-1.14
47	COc1ccc(CNC(=O)CS(=O)(=O)Cc2nc(-c3cccc(Cl)c3)oc2C)cc1	1.01	0.32
48	O=C(NCCC1=CCCCC1)c1cc(=O)[nH]c2ccc(S(=O)(=O)N3CCOCC3)cc12	0.982	-0.2
49	COc1cc(NC2c3ccccc3C(=O)N2c2ccccc2C)cc(OC)c1 (centres undefined)	0.982	-0.612
50	CC(C)(C)NS(=O)(=O)c1ccc2c(c1)CCN2C(=O)C1CC1	1.16	3.79
51	CC(C)c1ccc(NC(=O)CN2C(=O)c3ccccc3Sc3ccc(C(=O)N4CCCC4)cc32)cc1	0.955	-1.26
52	COc1ccccc1CNC(=O)c1nn(-c2ccc(Cl)cc2)c(=O)c2ccccc12	1.2	4.78
53	Cc1cc(C)cc(NC(=O)c2cnn(-c3ccccc3)c2-n2cccc2)c1	1.09	3.7
54	Cc1ccc2c(C)nc(Nc3nc4c(c(=O)[nH]3)CCCC4)nc2c1	0.767	-2.54
55	COc1ccc(CNC(=O)c2sc3nc(-c4ccc(OC)cc4)cn3c2C)cc1	0.954	-0.891
56	O=C(NCc1ccccc1Cl)Nc1ccc2snnc2c1	1	0.0548
57	COc1ccccc1N1CCN(C(=O)c2cc3c(s2)-c2c(C)cccc2OC3)CC1	1.04	1.3
58	Cc1c(C(=O)N(Cc2ccc(Cl)cc2)C2CCS(=O)(=O)C2)oc2ccccc12 (centres undefined)	0.863	-1.74
59	CCOC(=O)c1ccc2c(c1)NC(=O)c1ccccc1S2	0.991	-0.218
60	CCc1ccc(NC(=O)c2cc(-c3ccc4c(c3)OCO4)on2)cc1	1.01	0.169

Continued:
No.	compound	CBX7 AlphaScr	CBX7 AlphaScr z-score
61	C=CCn1c(=N)n(CCOc2ccccc2Cl)c2ccccc21	0.966	-0.737
62	CCOCCCn1nnc2c(=O)[nH]c(C(=O)NCc3ccccc3Cl)nc21	1.07	1.52
63	CCOc1ccc(Nc2nc(-c3ccc(Cl)c(Cl)c3)cs2)cc1	0.821&0.936	-3.45&-0.0846
64	CCOC(=O)c1cc(-c2ccccc2)n(-c2cccc(C(=O)NCc3ccccc3)c2)c1C	0.841	-1.72
65	O=C(Nc1cccc(C(F)(F)F)c1)Nc1ccc2snnc2c1	1.13	5.39
66	CCc1ccc(NC(=O)COCc2cc(-c3ccc(F)cc3)on2)cc1	1.03	0.307
67	Cc1n[nH]c(C)c1CCCCOc1ccc(F)cc1	1	0.00549
68	O=C(Nc1ccccc1F)c1cnc(N2CCN(c3ncccn3)CC2)c2ccccc12	1.14	0.905
69	COc1ccccc1C(=O)NCCc1nc2ccccc2n1Cc1cc(C)ccc1C	1.07	0.314
70	COc1ccc(S(=O)(=O)CCc2nnc(NC(=O)c3ccccc3Cl)s2)cc1	1	0.108
71	O=S(=O)(c1ccc(Br)cc1)c1cccc(S(=O)(=O)N2CCCCC2)c1	1.09	2.51
72	COc1ccc(N2CCN(CC(O)COc3ccc(C)cc3C)CC2)cc1 (centres undefined)	0.868	-1.41
73	Cc1[nH]c2c(C)ccc(F)c2c1CCNC(=O)c1ccnn1C	0.869	-1.89
74	CCC(=O)N1CCc2cc(S(=O)(=O)N(CC)c3ccc(C)c(C)c3)ccc21	1.02	0.485
75	CCCCNC(=O)c1nsnc1-c1ccccc1O	1.02	0.614
76	Cc1ccc2c(c1)-c1c(cnn1CC(=O)Nc1ccc(CN3CCC(C)CC3)cc1)CO2	1.06	1.04
77	Cc1ccc(S(=O)(=O)Nc2c(-c3ccccc3)c3cc(Br)ccc3[nH]c2=O)cc1	0.984	-0.25
78	CC(=O)Nc1ccc(Nc2nc(-c3ccccc3)cs2)cc1	0.862	-4.81
79	Cc1nc2c(C(=O)NCc3cccnc3)cnn2c(C)c1Cc1cccc(Br)c1	0.985	-0.673
80	Cc1sc2ncn(CC(=O)NCCCC(=O)NC(C)C)c(=O)c2c1C	1.03	0.569
81	Cc1ccc(S(=O)(=O)NCCCCCc2nc3ccccc3[nH]2)cc1	0.954	-0.507
82	CCN(CC)CCCNC(=O)CNC(=O)c1nn(-c2ccc(OC)cc2)c(=O)c2ccccc12	0.964	-0.749
83	Cc1ccc2c(c1)C(c1ccc(F)cc1)N(C(=O)CCC1CCCC1)CC(=O)N2 (centres undefined)	0.695	-5.54
84	COC(=O)c1cc2occc2n1CC(=O)Nc1ccc(C)cc1C	1.07	2.16
85	Cc1cc(C(=O)Nc2ccc(Br)cc2)no1	1.01	0.153
86	CCCS(=O)(=O)N1CCCC(C(=O)NCCN(CC)c2ccccc2)C1 (centres undefined)	0.984	-0.826
87	Cc1ccccc1Nc1c(-c2cccs2)nc2ncccn12	1.02	0.533
88	CCCOc1ccc(N2C(=O)CC(N3CCN(Cc4ccccc4)CC3)C2=O)cc1 (centres undefined)	0.882&1.04	-1.81&0.986
89	CCCCN(CC)CCNC(=O)c1cc2sc(Cl)cc2n1C	0.712	-4.73
90	CCN(CC)c1cc(C)c2cc(NC(=O)c3cc(Cl)ccc3OC)ccc2n1	0.861	-1.51
91	Cc1ccc(NC(=O)CCc2c(C)nc3cc(-c4ccc(Cl)cc4)nn3c2C)cc1F	1.05	0.322
92	Brc1ccc2nc(-c3ccccn3)c(Nc3ccc4c(c3)OCO4)n2c1	0.659	-0.592
93	O=C(Nc1cccc(-c2nc3ccccc3[nH]2)c1)c1ccc(F)cc1	1.24	1.81
94	CCCC(=O)NC(C)c1nc2ccccc2n1Cc1ccccc1C (centres undefined)	1.09	0.878
95	Cc1c(C(=O)NC(C)c2ccccc2)oc2ccc(S(=O)(=O)N3CCOCC3)cc12 (centres undefined)	1	0.00562
96	Cc1cc(NC(=O)CSc2nc3c(c(-c4cccnc4)c2C#N)CCC3)no1	0.977	-0.0276
97	Cc1onc(-c2ccccc2Cl)c1C(=O)Nc1cccc(C(=O)O)c1	1.07	1.53
98	COc1ccc(-n2ncc3c(NC(c4ccccc4)c4ccccc4)ncnc32)cc1	0.951	-0.174
99	CN1CCc2c(n(CC(O)CN3CCCCC3)c3ccccc23)C1=O (centres undefined)	1.12	2.41
100	O=C(NCCO)C(=O)NCC1(c2ccccc2)CCCC1	1.09	0.254
101	CCCCNC(=O)CSc1nc(NCCOC)c2ccccc2n1	0.995	-0.271
102	CCC1=Nc2cc(C(=O)NCc3ccc4c(c3)OCO4)ccc2Sc2ccc(Br)cc21	0.862	-7.09
103	CCOC(=O)c1ccccc1NC(=O)CC1Nc2cc(C)c(C)cc2NC1=O (centres undefined)	0.951	-1.46
104	CCCN(C(=O)Cn1ncc2c1-c1cc(C)ccc1OC2)c1cccc(Cl)c1	0.987	-0.335
105	COc1cc(OC)c(OC)cc1CN1CCN(Cc2ccc(F)cc2)CC1	1.02	0.613
106	CCc1ccc(NC(=O)CCn2ccnc2C)cc1	1.02	0.701
107	Cc1ccc(CNC(=O)Cc2nc3nc(C)cc(C)n3n2)cc1	1.05	2.07
108	CCOC(=O)N1CCN(C(=O)C2CCCN(c3nc4ccc(OCC)cc4s3)C2)CC1 (centres undefined)	0.955	-0.847
109	Cn1nc(CC(=O)Nc2ccc3c(c2)OCCO3)c2ccccc2c1=O	0.994	-0.0844
110	Cc1ccc(NC(=O)c2cc(-c3cccc(O)c3)on2)cc1	0.97	-0.986

(list continues)
No.	compound	CBX7 AlphaScr	CBX7 AlphaScr z-score
111	COc1ccc(-c2csc(Nc3cccc(C)c3)n2)cc1	0.775	-3.55
112	CCCCNC(=O)[C@H](CSCc1ccccc1)N1Cc2ccccc2C1=O	1.09	2.08
113	CCOc1ccc(Nc2ncnc3c2cnn3Cc2ccccc2)cc1	0.919	-2.25
114	Cc1cccnc1NC(=O)C1CCCN(S(=O)(=O)c2c(C)noc2/C=C/c2cccs2)C1 (centres undefined)	0.959	-0.733
115	COc1ccc(CCNC(=O)c2c(-c3ccccc3)noc2C)cc1OC	1.51	2.23
